# Compound activity as filed in PubChem BioAssay.
# Tg IFNy HTS – T. gondii growth inhibition with IFN-gamma, primary screen, cell-based | activity change, negative = inhibition, %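 (about 20 µM by stock and volumes)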 | 3.8% of 69,000 active | Toxoplasma gondii growth in IFN-gamma-treated host cells; active compounds read low; reference of the scale not given here;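 active = below -70%; inconclusive = fit judged invalid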;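 also: host cells are HeLa cells infected with Toxoplasma gondii; parasite growth read as luciferase light; one replicate is shown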
# * = called active by the depositor; i = inactive; u = inconclusive; & = joins results of further samples.
SMILES,Tg IFNy HTS
O=C(NCc1ccccn1)C1CC(=O)N(CCc2ccc(F)cc2)C1 (stereo not drawn),15
Cc1cccc(Cn2c(CN3CCC(C(=O)NCCCN4CCCC4=O)CC3)cc3ccccc32)c1,-35
COC(=O)COc1ccc(C(C)=O)cc1,-30
CNC(=O)[C@@H]1C[C@H](N)CN1S(=O)(=O)c1sccc1C,4
COC1COC2(CCN(C(=O)c3cscn3)CC2)C1 (stereo not drawn),47
COc1ccccc1CN(C(=O)c1cc(F)c(OC)c(F)c1)C1CC1,-11
O=C(Nc1ccc(N2CCC(NC3Cc4ccccc4C3)CC2)cc1)C1CCCC1,5
Clc1ccc(SCc2csc(-c3ccsc3)n2)cc1,-68
CNC[C@H]1OCc2ccccc2-c2ccccc2C(=O)N([C@H](C)CO)C[C@@H]1C,88
CCSCCN(C(=O)CC1CCOCC1)C1CCCCC1,1
CO[C@@H]1CCN(C(=O)c2cc(C)on2)C[C@@H]1Cc1ccccc1,-28
CN(C)C(=O)[C@H]1[C@H](CO)[C@H]2Cn3c(ccc(/C=C/c4ccccc4)c3=O)[C@H]2N1C(=O)c1cccnc1,5

# Taken from above (6 entries):
SMILES,Tg IFNy HTS
O=C(NCc1ccccn1)C1CC(=O)N(CCc2ccc(F)cc2)C1 (stereo not drawn),15
Cc1cccc(Cn2c(CN3CCC(C(=O)NCCCN4CCCC4=O)CC3)cc3ccccc32)c1,-35
COC(=O)COc1ccc(C(C)=O)cc1,-30
CNC(=O)[C@@H]1C[C@H](N)CN1S(=O)(=O)c1sccc1C,4
COC1COC2(CCN(C(=O)c3cscn3)CC2)C1 (stereo not drawn),47
COc1ccccc1CN(C(=O)c1cc(F)c(OC)c(F)c1)C1CC1,-11

# Further entries follow.
SMILES,Tg IFNy HTS
O=C(NC(N1CCCC1=O)(C(F)(F)F)C(F)(F)F)c1cccnc1,-38
COc1ccc(S(=O)(=O)N2CC3(CN(C(=O)c4cccnc4)[C@@H](CO)c4c3c3ccc(OC)cc3n4C)C2)cc1,11
COc1ccc(C)cc1NC(=O)N1CCC2(CC1)NC(=O)c1ccccc1N2C,39
C(=C\c1ccc(C2[C@@H]3CN(Cc4cocn4)C[C@H]2N3)cc1)/c1ccccc1 (stereo partly drawn),111&2
Cc1cc(F)ccc1C(=O)N1C[C@@H]2COC[C@]2(COCC2CC2)C1,-6
CCCCCCCCCCC[C@@H](C[C@@H]1OC(=O)[C@H]1CCCCCC)OC(=O)[C@H](CC(C)C)NC=O,-82*
Cc1cccn2cc(C(=O)N3CCC(c4nc(-c5ccc(F)cc5)c(C(N)=O)[nH]4)CC3)nc12,-30
O=C1NC(C(=O)N2CCc3onc(-c4cccc5ccccc45)c3C2)CO1 (stereo not drawn),-19
COc1ccc(OCc2nnc(SCC(=O)c3c(C)n(C)c4ccccc34)n2C)cc1,-49
COc1ccccc1-c1noc(-c2nnn(Cc3nc(-c4ccccc4OC)oc3C)c2C)n1,4
CCc1cnc(N2CCC3(CC2)CCN(c2cncnc2)C3=O)nc1,-17
Cc1nc(CNS(=O)(=O)Cc2cccc(Cl)c2)no1,10
Cc1ccc(NC(=O)c2ccsc2)cc1NS(C)(=O)=O,0
Cn1cc(C2c3nc[nH]c3CCN2Cc2cccn2-c2nccs2)cn1 (stereo not drawn),-30
COc1ccc(N2C(=O)CC(N3CCN(c4nc5ccccc5s4)CC3)C2=O)cc1 (stereo not drawn),15
COc1cccc(-c2ccc3c(c2)[C@@H]2[C@@H](CCN2C(=O)c2ccccn2)[C@@H](CO)N3)c1,200
O=S(=O)(C1CC1)N1CC[C@@H](O)[C@@H]1Cc1ccccc1,65
CO[C@H]1CCN(C(=O)Cc2ccccn2)[C@H]1Cc1ccncc1,17
CS(=O)(=O)N1CCC2(CCCN2c2nncs2)CC1,30
COc1ccc(OCC(=O)NCCc2sc(-c3cccc(F)c3)nc2C)cc1,33
O=C(CN1CCCN(c2ccccn2)CC1)N1CCCc2ccccc21,-8
CCNC(=O)C1(Cc2ccc(-c3cccnc3)cc2)CCN(C(=O)c2ccccc2)C1 (stereo not drawn),-4
Fc1ccc2c(c1)C1(CCNCC1)CC2NCC1CC1 (stereo not drawn),-27
COc1ccc(NC(=O)N[C@H]2CC[C@@H](CCNC(=O)CN3CCOCC3)O[C@@H]2CO)cc1,12

# Part of the list above, as labelled records.
CS(=O)(=O)N1CCC2(CCCN2c2nncs2)CC1
  Tg IFNy HTS = 30
O=S(=O)(C1CC1)N1CC[C@@H](O)[C@@H]1Cc1ccccc1
  Tg IFNy HTS = 65

# Returning to the listing with the four entries that preceded the break.
SMILES,Tg IFNy HTS
O=C(CN1CCCN(c2ccccn2)CC1)N1CCCc2ccccc21,-8
CCNC(=O)C1(Cc2ccc(-c3cccnc3)cc2)CCN(C(=O)c2ccccc2)C1 (stereo not drawn),-4
Fc1ccc2c(c1)C1(CCNCC1)CC2NCC1CC1 (stereo not drawn),-27
COc1ccc(NC(=O)N[C@H]2CC[C@@H](CCNC(=O)CN3CCOCC3)O[C@@H]2CO)cc1,12
O=S(=O)(c1ccccc1)N1CCCCN2[C@H](CO)[C@@H](c3ccc(C#CC4CCCC4)cc3)[C@@H]2C1,-25
Cn1ccc(C(=O)NCc2nc(-c3cccc(F)c3)c(-c3ccccn3)[nH]2)n1,-2
CC(c1ccccc1)n1nnnc1N1C[C@@H]2[C@H](C1)[C@H]1CC[C@@H]2O1 (stereo partly drawn),18
Cc1ccc(CN2CCC(CNC(=O)Cn3c4ccccc4c4cnn(C)c(=O)c43)C2)cc1 (stereo not drawn),21
CN(C)CCOCc1nn(C)c2c1CCN(C(=O)NC1CC1)C2,58
Cc1oc(C2CCN(C(=O)c3ccc(Cl)s3)CC2)nc1C(=O)N1CCSCC1,-61
COc1ccccc1CN(Cc1ccc(-n2cccn2)cc1)C1CC1,-12
COCC1CC2(CCN(Cc3ccco3)CC2)CN1Cc1ccncc1 (stereo not drawn),200
COCCCN1C(=O)/C(=C\c2cccs2)C(C(=O)OC)=C1C,20
O=C(/C=C/c1ccccc1)NCC1(c2ccccc2)CCOCC1,10
COc1ccc(-c2nc(CN(c3ccc(OC)cc3)S(=O)(=O)c3ccccc3C)c(C)o2)cc1,-5
CCC(C)N(C)C(=O)c1cc2ccccc2c(-c2ccccc2Cl)n1 (stereo not drawn),12&17
Cc1ccccc1C1(O)CCN(c2ccnc(C(=O)NCc3ccco3)c2)C1 (stereo not drawn),-11
Cc1ccsc1S(=O)(=O)N1CC(c2cccnc2)C1,5
Clc1ccc(-c2noc(CSC3=NCCN3)n2)cc1,-24
CN(C(=O)Nc1ccc(Cl)cc1)n1cnc2ccccc2c1=O,-51
CC(=O)c1c(C)c(C)c2n1CCn1c(C)ccc1-2,26
Cc1oc(-c2ccc(OC(C)C)cc2)nc1Cn1ccn2nc(-c3ccc(Cl)cc3)cc2c1=O,26
COc1ccccc1NC(=O)N1C[C@@H]2[C@H](c3ccccc31)[C@H](CO)N2CC1CCOCC1,-2
Cc1cc(CN2C[C@H]3CCC[C@@H](CN(C)C)[C@@H]3C2)nn1C,0
CCCCc1nc(Cl)c(CN2CCN(Cc3cccc(F)c3)CC2)[nH]1,-4
CC(c1ccccc1)C1CC(=O)N(Cc2ccccc2)C1=O (stereo not drawn),3
C[C@@H]1CCCCO[C@@H](CN(C)Cc2ccc(C(=O)O)cc2)[C@H](C)CN([C@H](C)CO)C(=O)c2cc(N(C)C)ccc2O1,65
CCOC(=O)CSc1n[nH]c(CN2c3ccccc3Sc3ccccc32)n1,66
Cc1ccc2[nH]cc(-c3ccccc3C(N)=O)c2c1,-4
CCOc1ccccc1NC(=O)OC1CCCN1C(=O)NCc1ccccc1 (stereo not drawn),-3
OC(CNC1CCN(Cc2ccccc2)CC1)CSc1ccc(F)cc1 (stereo not drawn),u
Cc1nnc2c3c4c(sc3ncn12)CC(C)CC4 (stereo not drawn),56
CCC(CC)NC(=O)C1CC(=O)N(CCc2c[nH]c3ccc(Cl)cc23)C1 (stereo not drawn),77
COc1cccc(S(=O)(=O)Nc2ccc3c(c2)C(=O)N(C)C[C@H](OC)[C@@H](C)CN(Cc2ccccc2F)[C@H](C)CO3)c1,-6
COc1ccc(-c2nc(C)c(CCNC(=O)c3ccc(Br)o3)s2)cc1OC,i
CN1C(=O)c2cc(NC(=O)c3cccc(Cl)c3)ccc2OC[C@H]2O[C@H](CC(=O)NC3CCCCC3)CC[C@H]21,-5
CCn1nc(C(C)C)cc1C(=O)NCc1cnc(SC)n1C,1
Cc1nc(-c2ccc(F)cc2)sc1CCNC(=O)c1cccc(Cl)c1,-56
CO[C@H](CN(C)C(=O)c1ccc2c(c1)OCO2)[C@H](C)CN([C@@H](C)CO)S(=O)(=O)c1ccc(Cl)cc1,-30
O=C1NCC2(CCCN(C(=O)Cc3cn4ccsc4n3)C2)O1 (stereo not drawn),2
CCC(CC)C(=O)N1CCC2(CC1)Nc1ccc(C)c(C)c1-n1cccc12,21
COc1cc(NC(=O)Cn2ncc3c(N4CCCC4)ncnc32)cc(OC)c1OC,15
O=C(Cn1ncc2c(N3CCCCC3)ncnc21)N1CCN(c2ccccn2)CC1,108
COc1ccc(-c2nc(NCC3CCN(Cc4ccc(Cl)cc4)CC3)c3ccccc3n2)cc1,-88
C[C@H](CO)N1C[C@H](C)[C@H](CN(C)Cc2ccc(C(=O)Nc3ccccc3N)cc2)Oc2ccc(NC(=O)Cn3cnnn3)cc2C1=O,-32
O=C(NCC(=O)N1CCn2nc(C(=O)Nc3ccccc3)cc2C1)c1ccccc1,-4
Cc1ccc2oc(=O)n(CC(=O)N3CCC(c4nnsc4S(C)(=O)=O)CC3)c2c1,22
Cc1ccc(OCC(=O)N2CCN(S(=O)(=O)c3cc4c5c(c3)CCN5C(=O)CC4)CC2)cc1,17
Cc1ccc2c(c1)c1cccc3c1n2CCN3CCC#N,-103*
COc1ccc2n[nH]c(CN3CCN(Cc4cccc(F)c4)CC3)c2c1,-2
CC(=O)Nc1ccc(S(=O)(=O)N2CCC(Cc3cc(N)nc(C)n3)CC2)cc1,-3
C[C@@H]1CN([C@H](C)CO)C(=O)c2cccc(N(C)C)c2O[C@@H]1CN(C)C(=O)Nc1ccc(F)cc1,4
Cc1ccc(-c2nc(CCNC(=O)C(=O)Nc3ccc(C)cc3C)cs2)cc1,82
OCc1cc2ccccc2nc1-c1cccc2[nH]ccc12,81
CC(C)COc1ccccc1CN(C)C(=O)CN1CCCC1,4
Cc1nc(C(C)NC(=O)CCc2c[nH]c3ccccc23)n[nH]1 (stereo not drawn),-8
Cc1ccccc1-c1nccn1CCc1n[nH]c2c1CCCC2,4
Cc1nc2ccc(/C=C/C=C/c3ccccc3)cc2s1,170
O=C1CC2(CCN(C(=O)c3ccno3)CC2)c2ccccc2N1,2
COc1ccc2c3c(n(C)c2c1)[C@@H](CO)N(C(=O)CN(C)C)CC31CCN(S(C)(=O)=O)CC1,19
Cc1cccc(CN2C(=O)CCC23CCN(CC2CCOC2)CC3)c1 (stereo not drawn),155
COc1ccc(S(=O)(=O)N(C)C[C@@H]2Oc3c(NC(=O)c4nc5ccccc5s4)cccc3C(=O)N([C@H](C)CO)C[C@@H]2C)cc1,-40
CCC(CC)n1ncc(C)c1NC(=O)Cc1ccc2c(c1)NC(=O)CO2,7
CC1=C(C(=O)NCc2ccc(Cl)cc2)C2(CCN(S(=O)(=O)c3cccs3)CC2)OC1=O,22

# Next part:
SMILES,Tg IFNy HTS
COc1ccnc(CN2CCCN(Cc3ccc(F)cc3)C(C(C)C)C2)c1 (stereo not drawn),13
CS(=O)(=O)N1CC2C[C@]2(NC(=O)c2cccc(F)c2)C1 (stereo partly drawn),-5
CN(C)c1ccc(CNC(=O)Cn2ncc3c(N4CCCCC4)ncnc32)cc1,31
CN(C)CCN1CCOCC2(CCCN(C(=O)c3ccc4ncccc4c3)C2)C1 (stereo not drawn),-5
CC(=O)NC1C(O)OC(COS(=O)(=O)O)C(OC2OC(C(=O)O)C(OC3OC(CO)C(OC4OC(C(=O)O)C(O)C(O)C4OS(=O)(=O)O)C(OS(=O)(=O)O)C3NS(=O)(=O)O)C(O)C2OS(=O)(=O)O)C1O (stereo not drawn),-35
O=C(Cc1ccc(Cl)cc1)NCCCNC(=O)c1cnccn1,30
COc1ccccc1CNC(=O)C[C@@H]1CC[C@H]2[C@@H](COC[C@H](O)CN2Cc2ccc3c(c2)OCO3)O1,20
Cc1ccc(NC(=O)CN2CCC3(CC2)N=C(c2cccc(F)c2)C(=O)N3)cc1F,-37
NC(=O)C1(N2CCCCC2)CCN(c2ncc(NC(=O)c3ccc(Cl)cc3)cc2C(=O)O)CC1,2
Cc1ccc(C(=O)N2CCOCC2c2csc(-c3ccccc3)n2)o1 (stereo not drawn),-50
COc1ccc(-n2cccn2)c(CN2CCC(n3nc(C)cc3C)C2)c1 (stereo not drawn),-5
O=C(Nc1ccc(Oc2ccc(Cl)cc2C2CCCCC2)nc1)C1CCCCC1,-52
C[C@@H]1CN([C@H](C)CO)C(=O)c2cc(NC(=O)Cc3ccccc3)ccc2O[C@@H](C)CCCCO[C@@H]1CN(C)Cc1ccncc1,32
Cc1ncccc1C(=O)NCC1CCC(C(=O)NCCN2CCc3ccccc32)CC1 (stereo not drawn),70
Cc1ccc2c(c1)c(CNC1CCN(Cc3ccccn3)CC1)nn2C,0
COc1ccc(C(=O)c2sc3nc(-c4cccs4)cc(-c4ccccc4)c3c2N)cc1,30
O=C(CO)N1CCC2(CC1)OCCN(Cc1cccnc1)c1ccccc12,418
Cc1ccc(CC(=O)N2CCC3(CC2)NC(=O)c2cc(F)ccc2N3C)cc1,42
O=C(NCc1cccnc1)c1c(O)c2ccccc2n(-c2ccccc2)c1=O,-5
CC(C)CC(=O)NCCc1csc(-c2ccc(Cl)cc2)n1,20
CCOC(=O)c1cc(Cl)c(NC(=O)C(F)(F)F)c(Cl)c1,-22
Cc1nn(CC(=O)N2CCN(c3ccccc3)CC2)c(=O)c2ccccc12,-6

# These rows are one share of the data. The share of hits here may be higher or lower than overall.
